# Rango dissoc inh: prevents RanGTP from dissociating the Rango-importin beta complex; Biochemical FRET Rango-importin beta, RanGTP-induced dissociation; Potency, µM (top dose mostly 46.1 µM), for inactives: at the top dose activity change, negative = inhibition; 340,000 tested, 0.071% active; active means falling FRET ratio curve, often poorly fitted, with flat reads before Ran was added; inconclusive means other falling curves, or compound fluorescence or quenching; inactive means flat or rising ratio curve;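 also: potency is read from the fitted curve at half-maximal effect; % of control where 0% means no effect; nearly all actives have a fitted effect of over 45% in size; -100% = wells without RanGTP and RCC1; the record marks most hits as doubtful in a second field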
#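 Rango/importin beta premix (0.1/0.25 uM final), PBS + 1 mM DTT + 0.02% Tween-20 + 0.1% BSA; cpd 5 min RT; FRET pre-read; + RanGTP-RCC1 (0.6 uM Ran, 2 mM GTP, 0.2 uM RCC1); 45 min RT; FRET post-read, ex 430, em 486/530 nm.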
# miR-21 FLuc: raises the signal of a miR-21 reporter | Potency, µM (series often up to 38.3 µM), for the others: at the top dose reporter change, positive = more light | HeLa miR-21 FLuc reporter, luciferase, 48 h | 340,000 tested, under 10 active; active = well fitted rising curve with a large enough effect; inconclusive = small, poorly fitted or top-dose-only effect; inactive = no such curve, though single readings can be large or run the other way;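 also: % of control where 0% means no effect; miR-21 action dims this reporter so a rising signal means less miR-21 action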
#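 Compounds were titrated across several concentrations (up to approximately 40 uM) and incubated 48 hours with HeLa miR-21-FLuc reporter cells (miR-21 target sequence downstream of FLuc, endogenous miR-21). Readout was firefly luciferase luminescence after lytic detection reagent.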
# Rango-impB inh: Rango-importin beta binding inhibition; Q14974; Rango CFP/YFP FRET sensor + importin beta, 45 min; Potency, µM (titrated, usually from 92.2 µM), inactives show top-dose inhibition of complex formation; 340,000 tested, 0.031% active; AID 540263; active = rising FRET ratio curve, often small or poorly fitted; inconclusive = mostly compound fluorescence or quenching in the first reads; inactive = flat curves in all reads;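 also: potency is read from the fitted curve at half-maximal effect; 0% = DMSO wells and 100% = buffer wells lacking importin beta; nearly all actives have a fitted effect of over 15% in size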
# Target sequence (Q14974 whole entry, looked up): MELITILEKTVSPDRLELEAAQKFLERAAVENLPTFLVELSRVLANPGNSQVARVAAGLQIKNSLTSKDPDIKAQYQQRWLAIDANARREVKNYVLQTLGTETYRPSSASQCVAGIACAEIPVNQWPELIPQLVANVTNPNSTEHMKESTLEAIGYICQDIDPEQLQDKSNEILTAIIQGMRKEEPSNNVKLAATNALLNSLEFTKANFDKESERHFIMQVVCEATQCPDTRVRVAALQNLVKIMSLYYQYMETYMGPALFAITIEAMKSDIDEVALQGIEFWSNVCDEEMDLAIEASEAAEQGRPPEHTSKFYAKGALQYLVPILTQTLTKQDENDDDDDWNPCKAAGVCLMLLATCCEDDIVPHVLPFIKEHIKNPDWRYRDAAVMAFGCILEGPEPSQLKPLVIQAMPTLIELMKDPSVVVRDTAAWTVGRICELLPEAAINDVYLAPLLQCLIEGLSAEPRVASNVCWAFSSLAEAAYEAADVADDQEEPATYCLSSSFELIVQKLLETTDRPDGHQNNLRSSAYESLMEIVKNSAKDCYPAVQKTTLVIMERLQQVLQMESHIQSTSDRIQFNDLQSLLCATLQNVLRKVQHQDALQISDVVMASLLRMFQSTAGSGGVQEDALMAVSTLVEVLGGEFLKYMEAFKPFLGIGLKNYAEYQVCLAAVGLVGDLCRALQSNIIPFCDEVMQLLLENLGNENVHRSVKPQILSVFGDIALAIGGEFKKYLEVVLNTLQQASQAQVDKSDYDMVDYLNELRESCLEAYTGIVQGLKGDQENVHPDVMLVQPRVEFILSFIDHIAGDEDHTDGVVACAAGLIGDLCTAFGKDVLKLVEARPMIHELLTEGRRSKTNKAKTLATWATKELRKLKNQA
#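 Inhibition scored from the CFP 486 nm/YFP 530 nm FRET ratio 45 min after adding 0.125 microM importin beta to 50 nM Rango biosensor preincubated 5 min with compound (room temperature, PBS with DTT, Tween-20, BSA). No-importin wells as positive control.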
# GLA inh pH 4.5: blocks human alpha-galactosidase A at pH 4.5; purified enzyme, 4-MU-alpha-Gal fluorescence, pH 4.5; 230,000 tested, under 10 active; AID 1467; activity change, negative = inhibition, % at 105 µM; inconclusive = small, poorly fitted or top-dose-only inhibition, or a rising curve; inactive = flat fitted curve, though single readings scatter; no compound was filed as active;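 also: 0% = full activity with enzyme and -100% = basal without enzyme; dose as in the result columns while the protocol names 77 µM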
# Active calls of the source: *; ? = inconclusive; . = no result given; & = joins results of further samples. These rows are one share of the data; rates above refer to the full screens.
# Short keys – A = Rango dissoc inh; B = miR-21 FLuc; C = Rango-impB inh; D = GLA inh pH 4.5
Structure: CCCc1[nH]n(-c2ccc([N+](=O)[O-])cc2)c(=O)c1C=NCCc1c[nH]c2ccccc12
  A = 1.7% | B = 4.5% | C = -0.4% | D = -7.9

Structure: CC1CCCC(C)N1C(=O)Cc1ccccc1 (stereo unspecified)
  A = -6.8% | B = 2.6% | C = -6.3% | D = 6.1

Structure: Cc1cc(OCC(O)CN2CCN(CCO)CC2)ccc1C(C)C (stereo unspecified)
  A = 10.6% | B = -2.1% | C = 4.0% | D = -3.9

Structure: COc1ccc(CNC(=O)CCS(=O)(=O)c2ccc3c(c2)NC(=O)C(C)S3)cc1 (stereo unspecified)
  A = -1.3% | B = 9.8% | C = 0.4% | D = .

Structure: COc1ccccc1C(=O)Nc1cc(Cl)ccc1O
  A = 34.8% | B = -8.4% | C = 0.8% | D = -2.9

Structure: CC(CNC(=O)CCc1nnc2ccc(N3CCC4(CC3)OCCO4)nn12)c1ccccc1 (stereo unspecified)
  A = -12.7% | B = -6.5% | C = -1.3% | D = .

Structure: CC1(C)CC(C)(O)N(Cc2ccccc2)C(=S)N1 (stereo unspecified)
  A = -3.6% | B = -4.2% | C = -0.5% | D = 14.0

Structure: O=[N+]([O-])c1ccccc1N(CC1CO1)S(=O)(=O)c1ccccc1 (stereo unspecified)
  A = 8.8% | B = 2.9% | C = -0.9% | D = 3.7

Structure: CC1(C)CC(=O)C2=C(C1)Nc1ccccc1NC2c1ccc([N+](=O)[O-])cc1 (stereo unspecified)
  A = 1.2% | B = . | C = -2.6% | D = .

Structure: Cc1cc(NS(=O)(=O)c2ccc(NC(=O)c3cc4cc(Br)ccc4oc3=O)cc2)no1
  A = -11.1% | B = -5.6% | C = -0.1% | D = 6.0

Structure: CCCCN(C)CCCNC(=O)c1ccc(N2CCCC2=O)cc1
  A = -14.8% | B = -7.3% | C = -1.6% | D = 6.4

Structure: CC(C)CCOP(=O)(c1ccc(N(C)C)cc1)C(O)c1ccc(C(C)C)cc1 (stereo unspecified)
  A = 6.0% | B = 15.5% | C = 0.1% | D = .

Structure: Cc1ccc(NC(=O)COC(=O)Cn2ccc(C(F)(F)F)n2)cc1Cl
  A = 20.6% | B = . | C = -3.2% | D = .

Structure: O=C(/C=C/c1ccccc1)NC(NC(=S)Nc1cc(Cl)ccc1Cl)C(Cl)(Cl)Cl (stereo unspecified)
  A = 3.4% | B = 23.3% | C = 2.4% | D = -6.0

Structure: CC(C)(C)N(Cc1ccccc1)C(=O)COC(=O)c1cccc([N+](=O)[O-])c1
  A = 23.1% | B = 4.0% | C = -0.1% | D = -0.1

Structure: COc1cc(C2C=C(Nc3ccccc3)C(=O)N2c2ccccc2)ccc1O (stereo unspecified)
  A = -24.6% | B = -35.9% | C = ? | D = -0.3

Structure: COc1ccccc1NC(=O)CSc1nc2nc(C)cc(C)c2c(=O)[nH]1
  A = -2.2% | B = 0.8% | C = -0.8% | D = -0.5

Structure: COC(=O)c1cc(OC)c(OC)cc1NC(=O)c1cccc(C)c1
  A = 0.9% | B = -6.0% | C = 2.0% | D = 0.1

Structure: COc1cccc(CNC(=O)CCC2CCCN(C(=O)c3ccoc3C)C2)c1 (stereo unspecified)
  A = -8.2% | B = -3.5% | C = 0.5% | D = 3.1

Structure: CCN(Cc1cc(OC)c(OC)c(OC)c1)C(=S)Nc1cccc(SC)c1
  A = -8.2% | B = 8.0% | C = -1.1% | D = -2.1

# Next part (2 carried over from the part before).
# Short keys – A = Rango dissoc inh; B = miR-21 FLuc; C = Rango-impB inh; D = GLA inh pH 4.5
Structure: COc1cccc(CNC(=O)CCC2CCCN(C(=O)c3ccoc3C)C2)c1 (stereo unspecified)
  A = -8.2% | B = -3.5% | C = 0.5% | D = 3.1

Structure: CCN(Cc1cc(OC)c(OC)c(OC)c1)C(=S)Nc1cccc(SC)c1
  A = -8.2% | B = 8.0% | C = -1.1% | D = -2.1

Structure: CCC(=O)c1ccccc1OCCN1CCN(CC)CC1
  A = 17.4% | B = 2.6% | C = 0.4% | D = 0.1

Structure: COc1cccc(CNC(=O)COC(=O)C2CCN(c3ccc(C(F)(F)F)cn3)CC2)c1
  A = 0.7% | B = . | C = -0.8% | D = .

Structure: CC(=O)NC(=S)Nc1ccc(NC(=O)c2cccnc2Cl)cc1
  A = 14.1% | B = -26.3% | C = -0.6% | D = -2.8

Structure: Cn1c(=O)c2c(ncn2Cc2nnc(N)s2)n(C)c1=O
  A = -0.3% | B = -2.7% | C = -0.4% | D = -0.4

Structure: COc1cc(OC)cc(C(=O)N[C@H](C(=O)OCc2cc(=O)oc3cc(C)ccc23)C(C)C)c1
  A = 0.4% | B = -5.4% | C = 4.5% | D = -15.2

Structure: CC(C)CCn1c(O)c(N=NC(=O)c2ccco2)c2ccccc21
  A = 17.7% | B = -16.1% | C = -1.4% | D = 9.4

Structure: O=C(O)c1ccc(S(=O)(=O)NC2CCCCC2)cc1
  A = -1.3% | B = -7.0% | C = 1.7% | D = 3.3

Structure: CC(c1ccon1)N(C)Cc1cn[nH]c1-c1ccc(-c2ccccc2)cc1 (stereo unspecified)
  A = -14.5% | B = -24.7% | C = 2.1% | D = ?

Structure: CC(C)c1csc(CN2CCC(CCC(=O)NCC3CCCO3)CC2)n1 (stereo unspecified)
  A = 8.9% | B = -8.6% | C = -0.6% | D = .

Structure: Cc1onc(-c2ccccc2)c1C(=O)N1CCN(S(=O)(=O)c2ccccc2Br)CC1
  A = -0.6% | B = -1.9% | C = 1.9% | D = .

Structure: CCOC(=O)/C=C/C(=O)OCC(=O)Nc1ccc(Cl)cc1Cl
  A = 17.2% | B = -2.4% | C = -0.9% | D = 11.9

Structure: COc1cc(-c2nnc3sc(C4CCCCC4)nn23)cc(OC)c1OC
  A = 2.4% | B = 8.4% | C = 1.3% | D = 5.4

Structure: O=C(NCCCN1CCCC1=O)c1sc2ccccc2c1Cl
  A = 9.4% | B = -41.9% | C = -0.9% | D = .

Structure: COc1ccc(S(=O)(=O)NCc2cccnc2)cc1C
  A = 0.4% | B = 1.3% | C = -0.5% | D = .

Structure: Cc1nc(S/C(=C/c2ccc(-c3cccc(Cl)c3)o2)C(=O)O)n[nH]1
  A = ? | B = -1.1% | C = ? | D = -0.7

Structure: CNCc1cc2ccc(C)cc2[nH]c1=O
  A = 1.5% | B = -2.5% | C = 2.6% | D = 2.4

Structure: Cc1csc(=O)n1CC(=O)Nc1ccc(S(C)(=O)=O)cc1
  A = -2.7% | B = . | C = -0.3% | D = .

Structure: CCOc1ccc(CCNC(=O)COC(=O)c2ccc3c(c2)OCCO3)cc1OCC
  A = -7.5% | B = . | C = 3.3% | D = .

Structure: c1cc(C(c2nnnn2C2CCCCC2)N2CCN3CCCC3C2)ccn1 (stereo unspecified)
  A = -8.5% | B = -6.5% | C = 3.7% | D = 3.5

Structure: COc1cccc2cc(C(C)=O)oc12
  A = -6.2% | B = -1.5% | C = 6.9% | D = 4.5

# Reformatted bar-delimited: entries from further up.
Structure | Rango dissoc inh | miR-21 FLuc | Rango-impB inh | GLA inh pH 4.5
CNCc1cc2ccc(C)cc2[nH]c1=O | 1.5% | -2.5% | 2.6% | 2.4
Cc1csc(=O)n1CC(=O)Nc1ccc(S(C)(=O)=O)cc1 | -2.7% | . | -0.3% | .
CCOc1ccc(CCNC(=O)COC(=O)c2ccc3c(c2)OCCO3)cc1OCC | -7.5% | . | 3.3% | .

# Next section
# Short keys – A = Rango dissoc inh; B = miR-21 FLuc; C = Rango-impB inh; D = GLA inh pH 4.5
Structure: COc1cccc(C=NCCCN=Cc2cccc(OC)c2O)c1O
  A = -27.1% | B = -3.4% | C = 5.9% | D = .

Structure: COc1ccc(C(=O)C2CCCN(C(=O)c3n[nH]c4c3CCCC4)C2)cc1OC (stereo unspecified)
  A = 4.2% | B = -25.0% | C = -0.5% | D = 7.3

Structure: CC(C)(C)N(Cc1ccccc1)C(=O)c1ccncc1
  A = 5.3% | B = 0.8% | C = 0.2% | D = .

Structure: COc1ccc(NC(=O)c2ccc3c(c2)C(=O)N(Cc2cccnc2)C3=O)c(OC)c1
  A = 11.5% | B = -4.0% | C = 1.0% | D = -3.4

Structure: CC1CCCCC12NC(=O)N(CC(=O)Nc1ccc(S(=O)(=O)N3CCOCC3)cc1)C2=O (stereo unspecified)
  A = 22.4% | B = -1.4% | C = -0.2% | D = 2.7

Structure: CCCCn1c(SCC(=O)c2cc(OC)ccc2OC)nc2cc(S(N)(=O)=O)ccc21
  A = 2.4% | B = -12.5% | C = 1.1% | D = -0.1

Structure: Cc1ccc(-c2nc(NCc3ccco3)n(S(C)(=O)=O)n2)cc1
  A = -8.2% | B = -59.0% | C = 1.2% | D = 5.8

Structure: Cc1nc2ccc(NC(=S)NC3CCCCC3)cc2nc1C
  A = ? | B = -56.2% | C = ? | D = 1.6

Structure: CCOc1ccc(-c2nnc(-c3snc(-c4ccc(F)cc4)c3N=CN(C)C)o2)cc1
  A = ? | B = -0.7% | C = -3.8% | D = 0.2

Structure: COc1ccc(Cl)cc1C(=O)CSc1nnnn1C1CCCCC1
  A = -23.6% | B = -11.8% | C = 1.9% | D = -4.2

Structure: CN(CC(=O)Nc1cccc(F)c1)C(=O)CSc1ccc(Br)cc1
  A = 4.9% | B = . | C = 4.3% | D = .

Structure: C[C@@H](NC(=O)OC(C)(C)C)C(=O)NCC1CCC(C(=O)N[C@@H](Cc2ccccc2)C(=O)O)CC1 (stereo partly specified)
  A = -6.9% | B = -3.9% | C = 2.6% | D = .

Structure: CC1(C)Cc2cccc(OCC(=O)NCCc3ccc(S(N)(=O)=O)cc3)c2O1
  A = -18.9% | B = . | C = -3.7% | D = .

Structure: COc1cc(=O)n(C)c2c(O)cccc12
  A = 2.8% | B = 7.8% | C = 3.5% | D = -0.6

Structure: N#CC12CCCCC1CC1CCCCC1(C#N)N2Cc1cccnc1 (stereo unspecified)
  A = 23.4% | B = -1.7% | C = 0.3% | D = 0.2

Structure: c1ccc(-c2ccn3nnnc3n2)cc1
  A = 15.6% | B = -40.3% | C = -1.6% | D = -2.8

Structure: c1ccc(-c2cn3c4c(sc3n2)CCCC4)cc1
  A = -1.8%&-4.1% | B = ? | C = 0.2%&0.3% | D = -8.0

Structure: CCC1CCCCN1CC(=O)Nc1cc(OC)c(OC)cc1C#N (stereo unspecified)
  A = 19.1% | B = 1.3% | C = -2.0% | D = 1.1

Structure: CCc1ccc2c(CN3CCc4ccccc43)cc(=O)oc2c1
  A = -5.8% | B = -28.1% | C = 0.3% | D = -12.3

Structure: CCN(CC)CCCNC(=O)c1c(O)c2c([nH]c1=O)CCCC2
  A = 0.2% | B = -9.6% | C = -1.4% | D = 6.3

# Brought forward from above: four entries; new compounds follow.
# Short keys – A = Rango dissoc inh; B = miR-21 FLuc; C = Rango-impB inh; D = GLA inh pH 4.5
Structure: c1ccc(-c2cn3c4c(sc3n2)CCCC4)cc1
  A = -1.8%&-4.1% | B = ? | C = 0.2%&0.3% | D = -8.0

Structure: CCC1CCCCN1CC(=O)Nc1cc(OC)c(OC)cc1C#N (stereo unspecified)
  A = 19.1% | B = 1.3% | C = -2.0% | D = 1.1

Structure: CCc1ccc2c(CN3CCc4ccccc43)cc(=O)oc2c1
  A = -5.8% | B = -28.1% | C = 0.3% | D = -12.3

Structure: CCN(CC)CCCNC(=O)c1c(O)c2c([nH]c1=O)CCCC2
  A = 0.2% | B = -9.6% | C = -1.4% | D = 6.3

Structure: COc1ccc(/C=C(\NC(=O)c2ccc(Cl)cc2)C(=O)NCCCN2CCOCC2)cc1OC
  A = -14.1% | B = -0.8% | C = 1.3% | D = .

Structure: CC(C)(O)P(=O)(O)CCc1ccccc1
  A = -3.7% | B = -3.1% | C = -0.6% | D = 7.0

Structure: CNc1c(NS(=O)(=O)c2ccc(Br)cc2)c(=O)oc2ccccc12
  A = 1.2% | B = -11.3% | C = 2.5% | D = .

Structure: CC(C)C(=O)N1CCC(c2nc(-c3ccc(S(=O)(=O)N4CCN(C)CC4)cc3)no2)CC1
  A = 3.1% | B = -3.8% | C = 3.9% | D = 10.9

# Screening data: PubChem BioAssay, National Center for Advancing Translational Sciences (NCATS)
